# Bioassay records deposited in PubChem by Fisher Drug Discovery Resource Center.
# NPYLR7 agonist – mosquito NPYLR7 agonism; activation, % at 10 µM; HEK293T NPYLR7/Galpha15, GCaMP6s calcium fluorescence; 0.15% of 270,000 active; AID 1259423; in the data active = activation above about 40%;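 note: 0% = vehicle and 100% = reference agonist at the receptor; some compounds past the cut are filed as inactive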
# NPYLR7 agonist max-min – second read-out of NPYLR7 agonist, no call of its own (marks repeat the call); activation, %; measured here: Max-Min RFU normalised activation; some inactives read as strong as hits;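 span of the calcium signal over five minutes; 0% = vehicle and 100% = native peptide agonist; compound fluorescence can raise it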
# * hit, by the source's call; & = joins results of further samples.
molecule	NPYLR7 agonist	NPYLR7 agonist max-min
CCOc1ccc(NC(=O)NC(Cc2ccccc2)C(=O)Nc2nnc(-c3ccc(F)cc3)s2)cc1 (stereo unspecified)	14.9	19.3
COc1ccccc1CCN1CCC(CN(C)C(=O)/C=C/c2ccccc2)CC1	4.4	5.8
CCCCNC(=O)C1(C)CCCCN1C(=O)c1c(F)ccc(C)c1F (stereo unspecified)	4.1	1.2
O=C(CNC(=O)Nc1ccccc1OC1CCCC1)NCc1ccco1	4.2	1.2
Cn1c(=O)c2[nH]c(CN3CCc4ccccc4C3)nc2n(C)c1=O	-0.8	-1.1
CC(C)Cn1nnnc1SCC(=O)NC1CCCCCC1	10.0	11.1
Cc1nc(C(C)N(C)Cc2ncccc2C(=O)O)c(C)s1 (stereo unspecified)	-0.9	7.2
O=[N+]([O-])c1cc(S(=O)(=O)Nc2cc(Cl)ccc2F)ccc1F	40.2*	56.2*
COc1ccc(CNC(=O)c2cnn3c2NC(c2ccco2)CC3C(F)(F)F)cc1 (stereo unspecified)	-6.6	-10.0
Nc1nc(SCC(=O)C23CC4CC(CC(C4)C2)C3)nc(-c2ccncc2)n1	2.3&0.6	1.8&7.5
CCCCCCCCCCCC(=O)N(CC(=O)N1CCc2sccc2C1c1ccc(Cl)cc1Cl)C1CC1 (stereo unspecified)	-2.3	-8.3
Cc1cc2nsnc2c(S(=O)(=O)N2CCN(C)CC2)c1C	1.7	0.5
Cn1nnnc1SCC1=C(C(=O)O)N2C(=O)C(NC(=O)C(O)c3ccccc3)C2SC1 (stereo unspecified)	-3.6&-8.1	0.4&-14.3
COc1ccccc1N1CCN(C2CCCN(C(=O)CCCCc3ccccc3)C2)CC1 (stereo unspecified)	-1.6	-3.3
COCCN(Cc1ccc(C)cc1)C(=O)c1ccc(N(C)S(C)(=O)=O)cc1	-2.5	-6.4
CCCCOc1cc(C)ccc1S(=O)(=O)NCc1ccccc1	5.9	4.7

# A run of entries from further up:
molecule	NPYLR7 agonist	NPYLR7 agonist max-min
COc1ccc(CNC(=O)c2cnn3c2NC(c2ccco2)CC3C(F)(F)F)cc1 (stereo unspecified)	-6.6	-10.0
Nc1nc(SCC(=O)C23CC4CC(CC(C4)C2)C3)nc(-c2ccncc2)n1	2.3&0.6	1.8&7.5
CCCCCCCCCCCC(=O)N(CC(=O)N1CCc2sccc2C1c1ccc(Cl)cc1Cl)C1CC1 (stereo unspecified)	-2.3	-8.3

# (continued)
molecule	NPYLR7 agonist	NPYLR7 agonist max-min
O=C(Nc1ccc2c(c1)OCO2)C(C1CCCC1)N1CCN(C(=O)CCc2ccccc2)CC1 (stereo unspecified)	8.4	9.0
COc1ccc(C2SCCN2C(=O)Nc2ccc(C)c(Cl)c2)cc1OCc1ccccc1 (stereo unspecified)	-9.7	6.0
COCCSc1ncc(-c2cccc(F)c2)c(C2CCN(C(=O)/C=C/c3ccccn3)CC2)n1	2.6	0.8
COC(=O)Cn1c(=NC(=O)Cc2ccccc2)sc2ccccc21	2.9	0.8
Cc1nc(C(C)NC(=O)c2ccc(OC3CCN(Cc4ccccn4)CC3)cc2)c(C)s1 (stereo unspecified)	-2.1	-3.9
O=C(NC(c1ccccc1)c1ccccn1)C1CCN(Cc2ccc(Cl)c(Cl)c2)CC1 (stereo unspecified)	-14.0	-14.3
CC(C)Cn1c(=O)c2ccc(C(=O)NC(C)C)cc2n2c(=O)n(CC(N)=O)nc12	8.4	4.6
CCN(CC)C(=O)Oc1ccc2c(ccn2Cc2c(F)cc(F)cc2F)c1-c1ccc(OC)cc1	7.8	3.7
CSc1nc2ncc3c(=O)n(-c4ccccc4)ccc3n2n1	1.9	2.3
O=C1CCCN1C1CCCN(Cc2cc(-c3ccccn3)no2)C1 (stereo unspecified)	3.2	1.7
Cc1ccc(C2(O)CCN(C(=O)c3ccc(Cn4cnnn4)cc3)CC2)nc1	6.1	2.1
CC(C(=O)Nc1ccccc1N1CCC(C(N)=O)CC1)n1cccn1 (stereo unspecified)	2.1	10.0
Cc1ccc(-c2cc3c4c(C)n(C)c(C)c4c(C)nn3c2)o1	-4.1	-12.4
COc1cc(C=NNC(=O)c2cc(-c3ccc(OC(C)C)cc3)n[nH]2)ccc1O	2.3	-0.3
CCN(CC)C(=O)Oc1ccc2c(ccn2Cc2cc(C(F)(F)F)ccc2C(F)(F)F)c1-c1cc(C)cc(C)c1	18.3	4.0
COc1ccc(N2CCN(c3ncnc4sccc34)C(C)C2=O)cc1 (stereo unspecified)	1.2	2.9
Cc1cc(OC(F)F)c(C(=O)NC(C)CCN(C)C)s1 (stereo unspecified)	2.6	1.1
CN1CC2(CCN(C(=O)c3ccn(C(C)(C)C)c3)C2)OC1=O (stereo unspecified)	-5.9	-4.4
C=CCN1Cc2cc(OC)ccc2N(C(=O)c2ccno2)CCC1=O	0.9	6.7
O=C1COc2cc3c(cc2N1)C(c1cc(F)ccc1-n1cccn1)CC(=O)N3 (stereo unspecified)	-6.0	11.0
COc1cccc(CN2C(=O)C3(SCCN3C(=O)C3CC3)c3cc(OC)ccc32)c1 (stereo unspecified)	3.3	3.1
O=S1(=O)CCN2C(c3cccc(Br)c3)=CSC2=N1	5.4	2.6
CCOCCCN(CC(=O)N(Cc1ccc(F)cc1)Cc1ccco1)C(=O)c1cccc(OC)c1	-8.9	-1.3
Nc1ncnc2c1ncn2[C@@H]1O[C@H](CO)C[C@@H]1O	-17.2	-22.3
Cc1cc(C(=O)Nc2cc(-c3ccccc3)nn2-c2ccc(Br)cc2)cc(Cl)n1	3.9	1.1
O=C(Cc1cccc(C(F)(F)F)c1)NC1CCc2ccccc21 (stereo unspecified)	2.8	-0.1
COC(Cn1ccnc1-c1ccc(CO)o1)c1cccs1 (stereo unspecified)	3.9	1.3
CN(C)CCC(NC(=O)C(=O)Nc1cc(F)cc(F)c1)C(C)(C)C (stereo unspecified)	10.0	3.0
Cc1ccc(-c2csc(-n3[nH]c(C)c(N=Nc4cccc(C(=O)O)c4)c3=O)n2)cc1	2.2	-4.2
O=C(CCc1ccsc1)NS(=O)(=O)c1cccnc1Cl	-0.8	-3.1
Cc1ccccc1NC(=O)CSc1nc(=O)n2cc(Cl)ccc2n1	4.4	3.5
Cn1c(=NN=Cc2c(O)ccc3ccccc23)sc2ccccc21	2.7	0.5
O=[N+]([O-])c1ccccc1Oc1ccccn1	2.5	9.6
CCc1nc2n(n1)C(=O)C(C(c1ccccc1)N1CCCC(C)C1)S2 (stereo unspecified)	0.2	29.4
NC1(C(=O)N2CCC(c3cc(-c4ccccc4Cl)n[nH]3)CC2)CCC1	-3.0	-3.8
CC(C)CC(NC(N)=O)C(=O)Nc1ccc(F)cc1F (stereo unspecified)	4.6	1.3
O=S(=O)(NC1CCSc2ccccc21)c1ccc(Cl)cc1C(F)(F)F (stereo unspecified)	6.1	5.7
COc1ccc(-n2nnc3c(N4CCN(C(=O)C56CC7CC(CC(C7)C5)C6)CC4)ncnc32)cc1	-2.8	-7.6
C#CCn1cnc2c(nnn2-c2cccc(F)c2)c1=O	-4.3	-11.1
O=C(Nc1cccc(-c2ncn[nH]2)c1)c1cc2c([nH]c1=O)CCCC2	-1.1	34.2

# Looked up by structure from the list above (four):
molecule	NPYLR7 agonist	NPYLR7 agonist max-min
O=C(Nc1cccc(-c2ncn[nH]2)c1)c1cc2c([nH]c1=O)CCCC2	-1.1	34.2
C#CCn1cnc2c(nnn2-c2cccc(F)c2)c1=O	-4.3	-11.1
O=S(=O)(NC1CCSc2ccccc21)c1ccc(Cl)cc1C(F)(F)F (stereo unspecified)	6.1	5.7
NC1(C(=O)N2CCC(c3cc(-c4ccccc4Cl)n[nH]3)CC2)CCC1	-3.0	-3.8

# Further entries follow.
molecule	NPYLR7 agonist	NPYLR7 agonist max-min
COCCCN(CC(=O)N(Cc1cccn1Cc1ccc(Br)cc1)C1CCCCC1)C(=O)C(C)(C)CCl	-7.3	3.0
COc1ccc(C(=O)N(CC(=O)N2CC(=O)N(c3cccc(Cl)c3C)C2)Cc2ccccc2)c(OC)c1	8.8	4.8
CCN1CCN(C(C)CNC(=O)c2cc(C)nc3ccccc23)CC1 (stereo unspecified)	7.9	5.0
CC(C)n1c2ccc(Cl)cc2c2nc3ccccc3nc21	10.3	8.8
O=C1C[C@H]2CC[C@@H](CN1)N2C(=O)c1nc(-c2ccccc2)cs1	-5.2	-8.8
Cn1cccc1C=NN1CCN(Cc2ccccc2Cl)CC1	-2.9	-10.0
Cc1cccc(OCc2nc(CN(C(=O)c3ccc(F)cc3)C(C)C)cs2)c1	3.8	9.1
CCOC(=O)C1CCCN(C(=O)Cn2nc3cc(C)nc(N4CCc5ccccc5C4)n3c2=O)C1 (stereo unspecified)	-5.1	-9.3
CCc1c(C)c(C#N)c2nc3ccccc3n2c1N1CCN(CC)CC1	9.9	7.0
Cc1ccc(/C=C2/C=c3c(Cl)cccc3=C2O)s1	6.8	7.9
CCc1nc2c(OCC(=O)N3CCOCC3)cccn2c1N(C)C(=O)C1CC1	3.6	0.8
CCOC(=O)C(CC)n1cnc2c(nnn2Cc2ccc(Cl)cc2)c1=O (stereo unspecified)	9.2	8.1
O=C(COc1cccc(Cl)c1)N1CCCC1c1nc2ccccc2[nH]1 (stereo unspecified)	-0.6	5.9
CN(C)CCOc1ccc2c(c1)Sc1ccccc1CC2=O	4.9	0.8
CC(C)c1nccc(C2CC(=O)Nc3cc4[nH]ncc4cc32)n1 (stereo unspecified)	-2.1	-7.7
COc1ccccc1-c1nc2ccc(C)cn2c1NC(=O)C1CCCC1	-4.7	1.6
CCc1cccc(CC)c1NC(=O)CN1C(=O)NC(C)(C2CC2)C1=O (stereo unspecified)	7.1	6.2
CCCN1CCCN(C(=O)c2coc(COc3cccc4cnccc34)n2)CC1	-8.4	-9.2
CCN(C(=O)Cn1nc(C)c(S(=O)(=O)N(C)C)c1C)c1ccc(F)cc1	3.5	0.6
O=C(NC1CCN(Cc2cccc(O)c2)CC1)c1ncn[nH]1	-3.1	-8.1
O=C1CC(C(=O)O)SC(=N/N=C\c2ccc(Br)cc2)N1 (stereo unspecified)	1.5	0.2
CCOC(=O)C1(Cc2cccc(OC)c2)CCN(Cc2cnn(-c3ccccc3F)c2)CC1	9.2	1.7
O=C(CSc1nc2c(cnn2CCO)c(=O)[nH]1)NCc1ccccc1	6.7	4.1
O=C(NNS(=O)(=O)c1ccccc1Br)c1cc2c(s1)CCC2	-1.7	-1.0
O=C1c2ccccc2S(=O)(=O)N1CCSc1nc2ccccc2[nH]1	-0.9	-1.9
CS(=O)(=O)c1ccccc1C(=O)Nc1c2c(nn1-c1nc3ccccc3s1)CCC2	3.9	1.4
O=C(NCC1CCN(c2nc(Cc3ccc(Cl)cc3)ns2)CC1)c1ccccc1Cl	7.1	17.9
CC(C)C[C@H]1CN(C(=O)c2cc(F)c(F)cc2F)CC[C@@]1(C)O	9.4	4.1
CCCc1cc(=O)[nH]c(-n2nc(C)cc2NC(=O)c2ccc3ccccc3c2)n1	5.0	1.2
O=C(c1c[nH]c2ccccc12)N1CCN(Cc2nnnn2-c2ccc(F)cc2)CC1	-2.3	-2.0
CCOC(=O)C1(Cc2ccccc2Cl)CCN(C(=O)CCc2scnc2C)CC1	8.8	5.4
c1cc(COn2nnc3ccccc32)cc(COn2nnc3ccccc32)c1	-4.9	-6.1
CS(=O)(=O)c1cc(C(=O)NS(=O)(=O)Cc2ccc(F)cc2)ccc1Cl	1.7	-5.3
CCN(CC)c1ncccc1CNC(=O)c1nccc2ccccc12	12.7	8.0
CC1(C(=O)NS(=O)(=O)c2ccc3c(c2)CCO3)CCN1C(=O)C1CCCCC1 (stereo unspecified)	2.1	-1.7
Cc1ccc(-n2nc(C)c(-c3ccccc3)c2NC(=O)CN(C(=O)Nc2cccc(F)c2)C(C)C)cc1	13.1	15.5
COC(=O)CN(C(=S)Nc1ccccc1)C1CC(=O)N(c2ccc(C(=O)OC)cc2)C1=O (stereo unspecified)	4.0	1.9
Cc1ccc(S(=O)(=O)N2CCN(Cc3ccccc3)CC2)cc1	-3.8	-9.1
O=C(NCCCn1nc2n(c1=O)CCCC2)Nc1ccc(-c2nccs2)cc1	1.0	-1.0
CNc1ncc(-c2ccc(OC)nc2OC)c(-c2ccc(C)cc2)n1	0.7	-1.9
O=C(c1cc(CN2CCOCC2)on1)N1CCOc2ccc(Cl)cc2C1	-10.4	-15.6
COCC(=O)N(Cc1ccc(F)cc1)Cc1cccc(OS(=O)(=O)c2ccc(OC)cc2)c1	11.2	7.7
O=C(NCc1ccncc1)c1nn(-c2cccc(C(F)(F)F)c2)c(=O)n(Cc2ccc(F)cc2)c1=O	-4.0	-2.4
CCNc1cc(NCCNC(C)=O)nc(C)n1	5.8	4.2
CCc1cccc(CC)c1-n1c(CNC(=O)c2c(F)cccc2Cl)nnc1SCC(=O)Nc1nccs1	-4.3	5.2
COc1ccc2c(c1)C1(SCCN1C(=O)C1CCCC1)C(=O)N2Cc1ccccc1Cl (stereo unspecified)	8.9	7.6
CC(=O)Nc1cccc(NC(=O)CSc2ncc(CO)n2CC(=O)NC2CC2)c1	9.2	3.0
COc1ccc(S(=O)(=O)Oc2ccc(-c3nc4ccccn4c3NC(C)(C)CC(C)(C)C)cc2OC)cc1	16.8	21.8
CC1(C)S[C@@H]2C(N3C(=O)[C@@H](c4ccccc4)NC3(C)C)C(=O)N2[C@H]1C(=O)O (stereo partly specified)	-7.8&-7.3	-13.0&-10.7
CC(O)CCN(C)c1ncccc1C(F)(F)F (stereo unspecified)	-0.7	-7.3
CCc1nc2n(n1)C(=O)C(C(c1cccc(OC)c1)N1CCN(c3ccc(F)cc3)CC1)S2 (stereo unspecified)	-4.2	-7.2

# A portion of the library. The share of hits here may be higher or lower than overall.
